D2 agonist: Beta-Arrestin HTS for Positive Allosteric Modulators of the Human D2 Dopamine Receptor: Agonists. activation, % (concentration not given with the values). AID 624465, 2012. D(2) dopamine receptor (Homo sapiens), P14416. DiscoveRx PathHunter D2 beta-arrestin, luminescence, 90 min; 100% = 57 uM dopamine signal. 0.084% of 360,000 active; in the data active = activation above about 40%; inconclusive = about 15% to 40%; inactive = below about 15%; also: compound concentration not given in the record; the text of the record calls up to 30% inactive
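DiscoveRx PathHunter D2 beta-arrestin cells (2,100/well) attached overnight, then compound-stimulated 90 min at 37 C in HBSS/10 mM HEPES/0.1% Tween-20 buffer; beta-galactosidase complementation read by luminescence after 1 h at ambient temperature. Dopamine 57 uM final (EC100) as control.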
CtBP-E1A blk: qHTS Assay for Inhibitors of the CtBP/E1A Interaction; CtBP / adenovirus E1A interaction (AlphaScreen); AlphaScreen GST-E1A/His-CtBP binding, 1536-well; hits give low values; control for the full effect not named in the record; activity change, % (test concentration not listed); 0.49% of 340,000 active; in the data active means activity change below about -65%; inconclusive means about -30% to -65%; inactive means above about -30%; also: % is scaled to controls: 0 for no effect and ±100 for the full control effect; compound concentration not given in the record
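Steps: dispense buffer (Tris pH 8.0, NaCl 300 mM, TCEP 1 mM, BSA, Tween 20); add 5X protein mix (GST-E1A, His-CtBP, 125 nM each); pin 23 nL compound; 2 h at 37 °C, dark; add 5X beads (50 ug/mL); 1 h; read.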
D2 PAM: Beta-Arrestin HTS for Positive Allosteric Modulators of the Human D2 Dopamine Receptor: Potentiators | DiscoveRx D2 beta-arrestin cells, luminescence, 90 min; 100% = 57 uM dopamine signal | AID 624464, 2012 | 0.23% of 360,000 active | D(2) dopamine receptor (Homo sapiens), P14416 | potentiation, % (concentration not given with the values); active = potentiation of 50% or more; inconclusive = 30% to 50%; inactive = 30% or less;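 also: compound concentration not given in the record; tested on top of an EC20 dose of dopamine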
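D2 cells co-treated with compound plus 50 nM dopamine (EC20) for 90 min at 37 deg C to detect potentiation. Beta-arrestin recruitment was read as enzyme-fragment luminescence after 1 h at ambient temperature. Full response was set by 57 uM dopamine.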
PINK1 expr mod: A Quantitative High throughput Screen to Identify Chemical Modulators of PINK1 Expression. 0.2% of 410,000 active. AID 624263, 2012. PINK1 immunofluorescence, high-content cytometry, 24 h. Potency, µM (titrated, usually from 76.6 µM), without a hit: at the top dose activation (PINK1 increase), usual class: activators; active = well fitted activation curve with a large enough effect; inconclusive = small, poorly fitted or top-dose-only effect; inactive = flat fitted curve, though single readings scatter; cell line not stated here;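 also: potency is read from the fitted curve at half-maximal effect; % of control where 0% means no effect; nearly all actives have a fitted effect of over 65% in size; a mitochondrial uncoupler was the plate control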
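Cells are seeded, rested 12 hours, then given compound at five concentrations or DMSO for 24 hours. After fixation, blocking and antibody staining, PINK1 amount and mitochondrial localization are scored; CCCP serves as control.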
TRPML1 agonist: qHTS for Agonists of the Human Mucolipin Transient Receptor Potential 1 (TRPML1); 0.12% of 410,000 active; AID 624414, 2012; Mucolipin-1 (Homo sapiens), Q9GZU1; activation, % (concentration not given with the values); TRPML1-expressing cells, Ca2+ dye fluorescence, FDSS; host cell line not named in the record; reference of the full effect not given here; in the data active = activation above about 50%; inconclusive = about 30% to 50%; inactive = below about 30%; also: 0% is about no effect; the text of the record puts the active cut at 80%
Target sequence (Q9GZU1 whole entry, looked up): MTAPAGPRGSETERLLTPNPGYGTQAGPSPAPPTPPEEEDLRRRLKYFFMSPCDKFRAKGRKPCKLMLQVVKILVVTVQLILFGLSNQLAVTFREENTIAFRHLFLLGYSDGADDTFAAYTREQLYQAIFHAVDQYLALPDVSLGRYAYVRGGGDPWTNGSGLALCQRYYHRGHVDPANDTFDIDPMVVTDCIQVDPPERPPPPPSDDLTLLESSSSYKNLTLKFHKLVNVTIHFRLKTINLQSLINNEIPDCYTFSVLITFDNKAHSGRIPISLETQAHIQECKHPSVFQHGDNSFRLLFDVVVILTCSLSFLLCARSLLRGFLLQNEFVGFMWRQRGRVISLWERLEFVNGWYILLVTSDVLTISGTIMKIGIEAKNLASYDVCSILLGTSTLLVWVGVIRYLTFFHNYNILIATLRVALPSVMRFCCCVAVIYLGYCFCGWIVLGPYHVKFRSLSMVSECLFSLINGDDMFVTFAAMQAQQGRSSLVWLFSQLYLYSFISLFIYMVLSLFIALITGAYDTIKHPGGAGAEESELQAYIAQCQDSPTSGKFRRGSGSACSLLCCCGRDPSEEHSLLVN
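Kinetic FDSS Ca2+ read in Tet-induced TRPML1-DL cells (ABD Ca8 dye plus quencher, 45-90 min RT loading): baseline, then compound, then 110 s agonist window; EC80 agonist 54-4 at 4uM final added afterwards for a 110 s antagonist window.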
Six1-Eya2 inh: qHTS Assay for Inhibitors of the Six1/Eya2 Interaction. 0.56% of 360,000 active. activity change, % (no concentration beside the values). AlphaScreen GST-Six1/His-Eya2 binding, biochemical; hits give low values; control for the full effect not named in the record. AID 651725, 2012; in the data active = activity change below about -65%; inconclusive = about -30% to -65%; inactive = above about -30%; also: % is scaled to controls: 0 for no effect and ±100 for the full control effect; compound concentration not given in the record
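Compounds are tested against tagged Six1 and Eya2 proteins bridged by glutathione donor and nickel acceptor beads; after a one-hour incubation at 37 °C without light, AlphaScreen emission is recorded.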
* = called active by the depositor; ? = inconclusive; . = no result given; & = joins results of further samples; [ ] = another dose, or the depositor's remark. The order is random; any-hit rate near 1.3%.

Screens in order: D2 agonist	CtBP-E1A blk	D2 PAM	PINK1 expr mod	TRPML1 agonist	Six1-Eya2 inh
(1) O=C(CN1C(=O)NC2(CCOc3ccccc32)C1=O)c1ccc(Br)cc1 (configuration not stated)
    -2.4	-13	-14	0.3%	-0.2	-4
(2) COc1ccc2cc(CN(C)C(=O)CN3C(=O)NC4(CCCC4)C3=O)ccc2c1
    1.6	-3	-10	-0.7%	-0.8	-3
(3) CC(OC(=O)Cc1coc2ccc3ccccc3c12)C(=O)NC(N)=O (configuration not stated)
    0.1	2	3	2.3%	0.5	-1
(4) COc1ccc(CC(N)c2csc(Nc3nccc(C(F)(F)F)n3)n2)cc1 (configuration not stated)
    -3.6	-17	-8	4.8%	-0.1	-7
(5) CCCN(N=Nc1cccc([N+](=O)[O-])c1)c1cccc([N+](=O)[O-])c1
    1.5	-13	4	.	1.0	-18
(6) Cc1ccc(S(=O)(=O)n2nc(OC(=O)c3ccccc3C)cc2N)cc1
    -3.8	1	0	-1.2%	1.5	3
(7) CCOC(=O)C1CCN(C(=O)c2ccc(S(=O)(=O)Nc3ccccc3OC)cc2)CC1
    0.6	3	-3	-1.5%	0.2	7
(8) Cc1cccc(C(=O)NNC(=O)c2csc(N3CCOCC3)n2)c1C
    -3.6	-3	15	-0.2%	0.1	-1
(9) CC(C)(C)NC(=O)C1(N2C(=O)c3ccccc3C2=O)CCCC1
    -2.3	-4	-27	0.2%	-0.2	6
(10) O=C(c1ccc2c(c1)OCO2)N1CCN(S(=O)(=O)c2ccc(Br)cc2Cl)CC1
    -0.4	-8	3	-1.0%	0.6	-2
(11) O=C(NC1CCCCC1)C(c1ccc2ncccc2c1)N(Cc1ccc2c(c1)OCO2)C(=O)c1ccc2c(c1)OCCO2 (configuration not stated)
    0.3	6	-16	2.2%	2.7	-3
(12) O=C(Nc1cccc2ccccc12)c1ccco1
    6.0	4	-6	-0.6%	-1.1	-5
(13) Cc1noc(C)c1NC(=O)N(C)C[C@H]1Oc2ccc(NS(=O)(=O)c3ccc(F)cc3)cc2C(=O)N([C@H](C)CO)C[C@@H]1C
    -1.9	6	-4	1.0%	-0.1	2
(14) COc1ccccc1OCC(=O)NNC(=O)c1cccs1
    -3.3	14	6	1.2%	0.2	1
(15) O=C(CNc1cc(S(=O)(=O)N2CCOCC2)ccc1NCC1CCCO1)Nc1ccc(F)c(F)c1 (configuration not stated)
    -0.4	0	-29	2.6%	-0.5	14
(16) CCc1nnc(NS(=O)(=O)c2ccc(NC(=S)NC(=O)/C=C/c3ccc(F)cc3)cc2)s1
    -4.9	?	-4	-0.3%	1.0	-12
(17) O=C(CN1CCCCC1)Nc1cccc([N+](=O)[O-])c1
    -4.3	-2	-31	1.9%	0.6	-3
(18) Cc1cccc(-c2nc(CSc3nc4c(c(=O)[nH]3)CCC4)c(C)o2)c1
    8.3	-27	8	4.1%	2.7	7
(19) O=C1[C@H](Cc2ccccc2)NCCCC[C@H](c2ccco2)N1Cc1ccccc1
    2.0	-3	-44	5.6%	-0.2&-1.1	-8
(20) COc1cc(CNCc2cccs2)ccc1OCc1ccccc1
    -2.8	8	-21	.	0.0	-5
(21) CCOc1ccc2oc(C(=O)NC3CC(C)(C)NC(C)(C)C3)c(C)c2c1
    3.8	.	-13	2.1%	-0.3	-3
(22) Nc1ncnc2c1ccn2[C@H]1CN(Cc2ccc3c(c2)OCO3)C[C@@H](COC(=O)c2ccccc2)O1
    2.7	-8	-2	2.0%	0.0	-7
(23) Cc1c(Cl)c([N+](=O)[O-])nn1CC(=O)NCC(C)C
    0.9	-4	-7	0.1%	0.0	4
(24) COC(=O)c1cc(NS(=O)(=O)c2ccc(Cl)c(N3C(=O)c4ccc(C(=O)O)cc4C3=O)c2)cc(C(=O)OC)c1
    -3.2	-2	-3	0.0%	0.7	-5
(25) COc1ccc(CC2C(=O)NC(C)C(=O)N(C)C3Cc4ccc(cc4)Oc4cc(ccc4O)CC(C(=O)NC(C)C(=O)NC(C)C(=O)N2C)N(C)C3=O)cc1 (configuration not stated)
    -1.2	5	-19	-7.0%	-0.3	2
(26) C/C(=N/OC(=O)c1c(-c2c(Cl)cccc2Cl)noc1C)c1cnccn1
    -1.8	-12	1	2.9%	1.5	-7
(27) CCN1CCN(C2=CC3=CC(=C(C#N)C#N)CCC3CC2)CC1 (configuration not stated)
    3.9	-4	-11	?	96*	-6
(28) Cc1ccc(C(=O)OCC(=O)N(C)c2ccccc2)cc1C
    -4.1	3	-4	1.4%	0.2	4
(29) CCCc1nnc(NC(=O)CCC(=O)N2CCN(C3c4ccccc4-c4ccccc43)CC2)s1
    -0.7	1	-7	1.1%	-0.4	1
(30) Cn1c(=O)n(-c2ccccc2)c(=O)c2c3c(sc21)COC(C)(C)C3
    -0.9	12	0	-0.9%	1.5	8
(31) O=C(Nc1ccccc1)C1=C(c2ccccc2)S(=O)(=O)CCS1(=O)=O
    -4.6	-1	-19	1.4%	1.9	?
(32) Cc1cc(/C=C2/C(=N)N3C(=NC2=O)SN=C3S(C)(=O)=O)c(C)n1-c1ccc(F)cc1
    3.6	.	-5	0.3%	1.5	-6
(33) CCNC(=S)NNC(=O)CSc1nc2ccccc2n1C
    -12	-7	-46	-1.1%	0.3	0
(34) CC1CCCN(C(=S)SCC(=O)O)C1 (configuration not stated)
    0.1	9	0	0.0%	0.9	11
(35) CC(C)c1cc(C(F)(F)F)n2nc(C(=O)Nc3ccc4c(c3)OCO4)cc2n1
    -4.5	0	-26	-1.8%	1.9	21
(36) Cn1c2c(c(=O)n1-c1ccccc1)CSCC2
    -2.9	.	-13	0.4%	-0.8	0
(37) Cc1ccc(Cl)cc1N1CCN(C(=O)CN2C(=O)c3cccc4cccc2c34)CC1
    -1.9	9	-2	-2.0%	0.6	28
(38) O=C(Nc1ccc(Cl)cc1)Nc1nnc(/C=C/c2ccccc2)s1
    -4.0	10	3	?	0.6	-1
(39) Cc1ccccc1C(=O)Nc1nc2c(C)csc2c(=O)s1
    -2.4	-3	-3	4.8%	2.5	8
(40) O=C(NCCc1ccc(F)cc1)c1ccc(Cl)c(S(=O)(=O)N2CCOCC2)c1
    1.3	4	-1	2.1%	-0.3	-1
(41) COc1ccc(OC)c(/C=C/c2nc3ccccc3[nH]c2=O)c1
    2.1	3	-1	16%	25	21
(42) O=C1NC(=O)C(CC(=O)N(Cc2cccs2)C2(C(=O)NC3CCCC3)CCCCC2)N1 (configuration not stated)
    -3.5	-1	15	3.1%	1.0	-6
(43) COC(=O)CCCNC(=O)c1ccccn1
    -3.4	9	-21	-0.1%	0.2	-7
(44) COc1ccc(NS(=O)(=O)c2ccc(Oc3cccc(C(=O)O)c3)cc2)cc1
    6.8	.	1	2.5%	0.4	2
(45) CCOc1ccc(CN(C)C(=O)c2ccc(S(=O)(=O)N(C)c3ccccc3OC)cc2)cc1
    -1.5	-4	3	-0.9%	2.3	-5
(46) CCN(CC(=O)Nc1ccc(C(=O)OC)cc1)C1CCCCC1
    -0.9	6	-17	4.0%	1.9	13
(47) Cc1csc(NC(=O)Nc2ccc(Cl)cc2)n1
    0.1	-1	9	2.6%	1.4	0
(48) CCCc1[nH]nc2c1C(c1ccoc1)C(C#N)=C(N)O2 (configuration not stated)
    1.0	4	-7	1.4%	0.2	-6
(49) CCOc1ccc(NC2=CC(=O)C(=O)c3ccccc32)cc1
    7.3	1	21	1.6%	0.6	?
(50) CCCCCCC(=O)N(O)C1CC(=O)N(Cc2ccccc2)C1=O (configuration not stated)
    -3.1	-3	-9	8.1%[38.3 µM]	0.7	-2
(51) COc1ccc(N/C(=C2\CCCC2=O)C2CCCCC2)cc1
    0.0	-4	0	-0.4%	-0.8	-9
(52) CCCOc1ccc(-c2nc(N3CCN(CC)CC3)c3ccccc3n2)cc1
    -1.0	.	-10	8.0%	0.4	-13
(53) Cc1cc(=O)[nH]c(SCC(=O)Nc2ccc(Br)cc2)n1
    -0.4	1	-3	2.8%	-1.2	1
(54) CCCCCCCC/C=C\CCCCCCCC(=O)NCCO
    -2.6	6	-7	0.0%	0.1	5
(55) COc1cc(C(=O)NCc2ccco2)c(Br)c(OC)c1OC
    0.7	-2	-9	.	-0.3	-1
(56) CN1OC[C@@H]2CN(C(=O)CCc3ccccc3)[C@H](c3ccc(N4CCCCC4)cc3)C[C@@H]21
    1.2	-27	-6	1.9%	0.6	-15
(57) CC(C)CNC(=O)c1cccc(Cn2cc(Cl)cn2)c1
    -0.1	8	-1	-2.2%	-0.7	1
(58) CC1Cc2ccccc2N1C(=O)CSc1nc2c(c(=O)n(C)c(=O)n2C)n1Cc1ccc(F)cc1 (configuration not stated)
    -0.2	6	10	13%	-1.7	-4
(59) COC(=O)c1cc2c(s1)-c1ccc(OC)cc1CC2
    2.4	.	-6	0.8%	2.2	8
(60) CCc1nn(CC(=O)N2CCN(CC)CC2)c(=O)c2cccn12
    -5.5	4	-5	1.1%	0.3	9
(61) O=C(Cn1cc2c(n1)CCCC2)NCCCN1CCN(Cc2ccccc2)CC1
    -0.5	4	-7	0.9%	0.9	-3

High-throughput results (PubChem)
